Bead autofluor – counter-screen for toxin protease inhibitors: compound fluorescence; fluorescence intensity (test concentration not listed); 360,000 tested, 3.1% active; compound autofluorescence counterscreen, microsphere flow cytometry; stronger effect = higher value;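 active means at least 3 SD above the mean of all compounds, about 16000 in these data; inconclusive means too few beads counted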;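 further: 100 nL of 1 mM stock went into each well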
PrP UTR inh – suppresses PrP 5' UTR mRNA reporter expression. cell-based PrP 5' UTR mRNA reporter, plate reader. inhibition, % (test concentration not listed). 340,000 tested, 0.35% active. AID 488862;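 active means every replicate at 50% or more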;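 further: 0 = median of the neutral control wells; tested in H4 reporter cells; numbers are from one replicate; inactives centre near -14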
BJeLR viability – BJeLR cell viability loss. inhibition, % (no concentration beside the values). AID 1554. BJeLR (HRASV12) viability, CellTiter-Glo ATP luminescence, 48 h; reference of the scale not given here. 300,000 tested, 0.17% active;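 active means replicate mean above 50%; inconclusive means above 50% but judged a plate artefact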;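 further: 50 nL library stock added to about 25 µL; numbers are from one replicate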
Mtb hypoxia rep – reduces hypoxia-regulated biosensor signal in M. tuberculosis | M. tuberculosis hypoxia-regulated fluorescent reporter, fluorescence | fluorescence inhibition, % (test concentration not listed) | 300,000 tested, 0.1% active;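 active means 35 to 45% if threefold the growth effect, above 45% if 1.5-fold the growth effect; inactive means the rest, general growth blockers included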;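 further: wells of about 50 µL received 100 nL stock; 0% = vehicle wells and 100% = reference inhibitor wells; whole bacteria with a GFP reporter of the hypoxia response; strong numbers were not always called active; many hits fall short of the cut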
RN4220 kill – S. aureus RN4220 growth inhibition | OD600, 16 h | inhibition, % (no concentration beside the values) | 330,000 tested, 0.33% active;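 active means z-score of -3 or lower and OD600 up to 0.18 on both plates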;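 further: plate controls were untreated cells for no effect and reference antibiotic for full effect; stock transfer was 100 nL into about 80 µL; one replicate is shown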
ugtP null kill – compounds lethal to S. aureus RN4220 ugtP deletion mutant. OD600 growth, 16 h; some inactives read as strong as hits. growth inhibition, % (no concentration beside the values). 330,000 tested, 0.54% active. AID 1259309;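 active means z-score under -3 and OD600 up to 0.15 on both plates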;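 further: plate controls were untreated wells for no effect and antibiotic for full effect; wells of about 80 µL received 100 nL stock; the first replicate is given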
Mtb hypoxia rep growth – recorded beside Mtb hypoxia rep, whose call it bears; growth inhibition, %; measured here: M. tuberculosis growth (absorbance);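 0% = vehicle and 100% = reference antibiotic; read after six days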
An asterisk follows results filed as active; ? = inconclusive; . = not tested or not shown. No enrichment for hits. About 4.1% of those tested had a hit in this group.

SMILES	Bead autofluor	PrP UTR inh	BJeLR viability	Mtb hypoxia rep	Mtb hypoxia rep growth	RN4220 kill	ugtP null kill
Cc1nc(CNS(=O)(=O)c2ccc3c(c2)CCCC3)cs1	5246	4	7	2	14	-5.2	-9
COC(=O)c1ccc(NC(=O)CCN2CCN(Cc3ccccc3)CC2)cc1	5306	-23	14	7	1	4.9	12
CCOC(=O)c1sc(NC(=O)CSc2nc3c(c(=O)n2-c2ccc(C)cc2)SCC3)c(C(=O)OCC)c1C	4307	-10	-4	10	6	-3.8	2
COc1ccc(C)cc1C(=O)CCC(=O)NC1CCCCC1	3107	-23	4	-6	4	16	6
CC(C)(C)OC(=O)N1CCC[C@H]1C(=O)NCC1CCC(C(=O)O)CC1 (some centres not stated)	9967	-16	-1	16	7	5.0	-1
NS(=O)(=O)c1ccc(CCNCC(=O)NC2CC2)cc1	4653	-5	6	-9	6	5.6	6
COCCN(C(=O)C(C)C)c1nnc(-c2ccc(C)cc2)s1	4125	-8	3	5	4	5.5	14
O=S(=O)(c1cccs1)n1nnc2ccccc21	3215	0	0	7	8	-9.1	-7
CN(C)c1ccc(/C=C/C(=O)c2ccc3c(c2)OCCO3)cc1[N+](=O)[O-]	1936	-25	-9	1	2	2.8	-11
CCOC(=O)c1c(C)c(C(=O)N2CCN(c3ccc(F)cc3)CC2)c(C)n1C	2628	-16	-2	2	13	5.6	6
CCOc1cc2[nH]c(=S)n(CCCC(=O)N3CCC4(CC3)OCCO4)c(=O)c2cc1OCC	22729*	-30	-12	2	10	5.2	4
CCO[C@@H]1OC(C(=O)N2CCOCC2)=C[C@H](c2ccc(Br)cc2)[C@H]1CCCO	3889	-11	0	.	.	.	.
CCCNc1c(NC(C)=O)c(=O)oc2ccccc12	2269	-24	4	-3	-7	1.4	-2
Cc1csc(=O)n1CC(=O)OCC(=O)NCc1ccc(F)cc1	4066	-15	5	6	-5	1.7	4
COC(=O)c1sccc1-n1cccc1C(=O)N1CCOCC1	2649	-16	3	.	.	3.0	-5
CCC(=O)N1CCN=C1SCc1ccccc1Cl	4308	-9	5	.	.	1.8	10
c1ccc(C2C3CN(Cc4cccnc4)C(c4ccccc4)C34CC2(c2cccnc2)C4)cc1 (configuration not stated)	.	.	.	-3	6	-2.0	-8
CCC(=O)Oc1oc(-c2ccccc2)nc1C=Nc1ccccc1OC	6573	-21	-10	11	7	5.5	12
COc1ccc(OC)c2c(N)c(C#N)c(C(F)(F)C(F)(F)F)nc12	4714	2	-1	.	.	1.6	-4
Cc1ccc(C(=O)OCC(=O)NCCc2ccccc2)cc1S(=O)(=O)N1CCOCC1	6054	-11	-1	3	-5	1.4	1
O=C1C=C(C=Cc2ccccc2)CC(c2ccc(F)cc2)C1 (configuration not stated)	.	.	.	4	7	-1.7	35
O=S(=O)(CCSc1nc2ccccc2s1)c1nc2ccccc2s1	4205	-9	6	10	7	24	43
Cc1nn(CCc2n[nH]c(=S)n2C2CCCCC2)c(C)c1Br	26154*	-12	-9	9	7	4.8	5
Cc1cc(NC(=O)C(C)SCC(=O)Nc2ccccc2OC(F)F)no1 (configuration not stated)	4410	-8	-2	2	2	4.2	7
CCOC(=O)COc1ccc(/C=C2\C(=O)NC(=S)N(c3ccc(OC)cc3)C2=O)cc1OC	2916	-20	8	1	-7	1.5	6
CCOc1ccc(CN(CCCl)CCCl)cc1C(=O)OC	6318	1	-7	7	-1	2.2	6
O=C(O)CC1(CC(=O)N2CCN(CCO)CC2)CCCC1	4482	-33	-3	-2	8	3.8	5
CCc1sc(N(C(=O)Cc2ccccc2)c2ccccc2)nc1-c1ccccc1	3210	-23	15	4	7	-9.0	5
O=C(OCc1ccccc1)c1cccnc1Cl	4454	-14	-8	2	-1	1.6	6
Cc1ccc(C2C(C(=O)O)c3ccccc3C(=O)N2C)o1 (configuration not stated)	9492	-18	11	-1	7	4.7	8
Clc1ccc(CNCCC2=CCCCC2)cc1	17461*	-8	-12	8	4	1.6	-1
OC(CN1CCN(Cc2ccccc2)CC1)c1ccccc1 (configuration not stated)	4837	-22	7	-3	2	2.4	11
COc1cc2oc(=O)cc(-c3ccc(-c4ccc(CO)cc4)cc3)c2c(OC)c1OC	2828	-13	.	1	-1	1.3	1
Fc1ccc(CN2CCSCC2)cc1Br	11266	-11	3	-3	-5	11	9
COc1ccc(C2=NOC(C(=O)Nc3ccc(C(C)=O)cc3)C2)cc1OC (configuration not stated)	10620	-32	-2	4	8	-2.1	-1
Nc1nnc(COc2ccc(Br)cc2Br)s1	9797	-75	-6	8	3	8.1	-4
CC(C)C(=O)Nc1ccc(C(=O)NNC(=O)c2cccs2)cc1	11223	-11	4	1	5	-2.2	3
COc1cccc(C2C(C(=O)c3cccs3)=C(O)C(=O)N2CCN(C)C)c1OC (configuration not stated)	8996	-36	-1	10	4	1.0	1
CCOc1cc(/C=N/NC(=O)CSc2nncn2C)ccc1OCc1ccccc1	10342	1	-8	.	.	.	.
Cc1ccc(C(=O)N2CCN(Cc3ccccc3)CC2)cc1S(=O)(=O)N1CCOCC1	?	-14	.	10	1	0.9	2
N#CCC(=O)NN=Cc1ccc(OC/C=C/c2ccccc2)cc1	.	.	.	-6	2	1.0	-12
COc1ccc(Nc2nc(N3CCN(S(=O)(=O)N(C)C)CC3)nc3ccccc23)cc1	3587	-32	-6	-2	-12	-0.9	3
c1ccc(OCCn2cnc3ccccc32)cc1	17262*	-30	-1	0	3	-1.0	6
Cc1cc(C)c2c(N)c(S(=O)c3ccc(C(C)(C)C)cc3)sc2n1 (configuration not stated)	6774	-18	-1	4	7	1.5	-2
Cc1nn(C)cc1-c1cc(C(=O)O)c2ccccc2n1	4612	-29	0	-7	0	6.7	14
COc1cccc(N2C(=O)C3CCCN3C2c2ccc(F)cc2)c1 (configuration not stated)	6364	-14	-7	16	9	4.4	-8
COc1cccc(-n2nnnc2SCC(=O)NCc2ccco2)c1	4671	-17	-3	.	.	-0.1	0
CCn1c(CC(=O)Nc2ccccc2)nnc1SCC(=O)Nc1nnc(C)s1	6294	-26	3	-7	2	-0.8	0
CCN(CC)S(=O)(=O)c1ccc(NCc2ccccn2)nc1	4100	-25	2	-2	-5	4.2	12
O=C1NC(=O)C(=C2CCCCCC2)S1	2543	-17	1	9	0	4.6	-4
O=C(CSc1ncccc1C(=O)O)NC1CCCCCCC1	4284	-22	7	5	-10	0.3	9
Cc1cc(C(=O)COC(=O)c2ccc(CO)cc2)c(C)n1CC1COc2ccccc2O1 (configuration not stated)	2858	-4	3	10	7	0.5	0
CCc1cc(CNC(=O)CC2C(=O)NCCN2CC2CCCCC2)on1 (configuration not stated)	2912	-36	-12	14	10	0.5	5
N#CC1=C(N)Oc2c(c(=O)sc3ccccc23)C1c1ccncc1 (configuration not stated)	5024	-16	3	11	1	9.1	10
COc1cccc(CN2CCN(C(=S)NCc3ccc(Cl)cc3)CC2)c1	3259	-43	-10	7	8	-6.9	4
CC1CCCCC1NC(=O)COC(=O)CCC(=O)c1cccs1 (configuration not stated)	6674	-3	.	5	7	1.1	-3
CCOC(=O)C(=CNc1ccc2c(c1)c1ccccc1n2CC)C(=O)OCC	5200	-13	-3	-2	3	4.0	-18
COc1ccc(CN(C)C(=O)c2ccc(NS(=O)(=O)c3ccc(F)cc3)cc2)c(OC)c1	6461	-13	-7	0	1	-0.5	90*
CCCCNc1cc(NC(C)=O)cc2cc(OC)c(OC)cc12	8920	-28	11	6	4	3.5	-2
Cc1sc(-n2c(C)cc(C=Nn3cnnc3)c2C)c(C#N)c1C	.	.	.	0	5	6.1	-4

Carrying on:
SMILES	Bead autofluor	PrP UTR inh	BJeLR viability	Mtb hypoxia rep	Mtb hypoxia rep growth	RN4220 kill	ugtP null kill
CSc1ccc(S(=O)(=O)NCCCn2ccnc2)cc1	4192	-9	-2	4	3	2.3	5
COC(=O)c1cc(Oc2ccc(C(=O)OC)cc2N)cc(C(=O)OC)c1	3203	-2	-16	10	8	5.8	8
NC(=O)CC(NC(=O)Cc1ccc(Br)cc1)c1ccc(NC2CC3CCC2C3)c([N+](=O)[O-])c1 (configuration not stated)	3154	-23	0	11	3	-5.9	1
Oc1c(Br)cc(Br)cc1C=NCc1ccc(F)cc1	4139	-32	1	-2	2	-10	13
CCc1nc(C)cn1S(=O)(=O)c1cc(Br)ccc1OC	6753	-11	-2	6	3	2.8	-1
O=C(OCc1ccc([N+](=O)[O-])cc1)C1CCN(S(=O)(=O)c2ccccc2)CC1	8423	-30	-5	-6	-5	-3.8	-6
CCOC(=O)c1c(N2C(=O)CC(Sc3ccccc3C(=O)O)C2=O)sc(C)c1C (configuration not stated)	5912	0	-1	12	7	6.9	0
CCN(CC(=O)Nc1cc(Cl)ccc1C)C(=O)COc1ccccc1F	3849	-26	5	9	10	4.3	7
O=C(CCC(=O)Nc1ccc(F)cc1)NN=Cc1c[nH]c2ccccc12	.	.	.	6	-3	1.5	5
CN(C)c1ccc(-c2noc(C3CCN(S(=O)(=O)c4cccc(C(=O)O)c4)CC3)n2)cc1	10149	1	-7	6	2	9.9	9
CCOC(=O)C1CCCN(c2ncnc3c2cnn3-c2ccc(Cl)cc2)C1 (configuration not stated)	10415	10	10	11	12	3.7	19
CC(C(=O)Nc1cccc(C#N)c1)N(C)CCOc1ccccc1 (configuration not stated)	5842	-5	1	16	-4	1.0	9
CC1=C(CC(=O)NCC(=O)NCC(=O)O)c2cc(F)ccc2/C1=C/c1ccc(S(C)=O)cc1 (configuration not stated)	3197	6	0	5	-7	-4.4	4
Cc1ccc(-c2csc(C(C#N)=C3CCCC3)n2)cc1	3361	-85	-3	8	4	12	6
COc1cc2c(c3oc(=O)cc(CC(=O)O)c13)CCC(C)(C)O2	3961	16	1	4	-5	2.3	-5
